Bioassay records from PubChem.
H5N1 CPE = MDCK cell protection from H5N1 avian flu; inhibition, % at 50 µM; cytopathic effect, luminescence, 72 h; stronger effect = higher value; no value below 0 was filed and about half of the inactive calls have no number; reference of the scale not given here; hit rate 0.07% among 96,000; AID 740, 2007; in the data active means inhibition above about 25%
Numbers without * were called inactive; i = inactive. These rows are one share of the data; the hit share may differ from the screen's.

SMILES	H5N1 CPE
O=C(NCCN1CCc2ccccc2C1)C1CCN(S(=O)(=O)N2CCC3(CC2)OCCO3)CC1	0.1
COc1cccc(NC(=O)c2ncn[nH]2)c1	i
CSc1nc(N(C)NC(=O)c2ccc(Cl)cc2)c2ccccc2n1	1.7
COC(=O)CC1NC2CCCCC2NC1=O (stereo not drawn)	i
COc1ccccc1NC(=O)CSc1nc2ncccc2[nH]1	i
Cc1csc(NC(=O)CSc2nc3sc(C)c(C)c3c(=O)[nH]2)n1	i
O=C(c1ccc(CS(=O)(=O)c2ccc(Br)cc2)o1)N1CCOCC1	0.9
CCOc1ccccc1NC(=O)Cn1nnc(C(=O)NCc2ccco2)c1N	0.0
Cn1cnnc1SCC(=O)c1cc2ccccc2oc1=O	i
COc1cc(C(c2nnnn2C2CCCC2)N2CCc3ccccc3C2)ccc1O (stereo not drawn)	0.3
O=C(CCc1ccccc1)NNC(=S)NC(=O)c1ccc(Cl)cc1	1.4
O=C(Nc1cccc(-c2nnn(CC(=O)N3CCc4ccccc4C3)n2)c1)C1CCC1	0.1
Cc1nc(NCCCO)c(C#N)c2c1COC(C)(C)C2	1.8
O=C(OC(C(=O)NC1CCCC1)c1ccc(F)cc1)c1ccno1 (stereo not drawn)	i
CC(C)NC(=O)Cc1ccc(Br)cc1	0.2
C=CCc1cccc(/C=N/n2c(C)nnc2C)c1O	i
COc1cc(/C=C(\C#N)c2nc3c(s2)CC(C)CC3)ccc1O (stereo not drawn)	0.2
CCOC(=O)CN(C#N)c1nc(C)cc(C)n1	2.3
CCOC(=O)c1ccc2[nH]c3c(c2c1)CCCCC3=O	i
CC(SCc1ccccc1)C(=O)Nc1ccc2c(c1)OCO2 (stereo not drawn)	i
Cc1nc(SCC(=O)c2ccccc2)c([N+](=O)[O-])[nH]1	i
Cc1ccc(C)c(NC(=S)NNC(=O)c2csc3c2CCCC3)c1	0.1
CCOc1ccc(Br)cc1S(=O)(=O)N1CC(C)OC(C)C1 (stereo not drawn)	1.0
O=C(c1ccc2c(=O)n3c(nc2c1)CCCCC3)N1CCN(C(c2ccccc2)c2ccccc2)CC1	0.9
CC(=O)Oc1ccc(OC(C)=O)c(SCCCCCN2CCOCC2)c1	3.8
C=CCOc1ccc(/C(O)=C2/C(=O)C(=O)N(CCN3CCOCC3)C2c2ccc(C)cc2)cc1 (stereo not drawn)	0.5
Cc1c(C=O)c(C=O)c(C)n1Cc1ccccc1	i
CCOc1ccc(NC(=O)CSc2nc3ccccc3c(=O)n2CCCC(=O)N2CCCC2)cc1	0.7
COC(=O)c1sccc1NC(=O)CSc1ccccc1NS(=O)(=O)c1cc(Cl)ccc1Cl	i
CCN(CC)S(=O)(=O)c1cccc(-c2nnc(SCC#N)n2Cc2ccccc2)c1	1.0
Cc1cc(COc2ccccc2O)on1	i
Cn1nc(C(=O)N2CCN(S(=O)(=O)c3ccccc3)CC2)c2ccccc2c1=O	0.2
COc1ccc(C(=O)NC2CCN(C(=S)Nc3cc(C)ccc3C)CC2)cc1	0.1
COc1ccc(NC(=O)c2cc(OC)c(OC)c(OC)c2)cn1	0.1
COc1ccc(C(=O)N(CN2CCCC2=O)c2ccccc2OC)cc1OC	0.3
Cc1cc(NC(=O)CCSc2nc(-c3ccco3)cc(C(F)(F)F)n2)no1	0.2
CCC1(C)CC(c2csc(N)n2)CCO1 (stereo not drawn)	i
COc1ccc(-c2cc(C(=O)N3CC4(C)CC3CC(C)(C)C4)no2)cc1OC (stereo not drawn)	i
CCCCn1nc2cc(C(=O)NCc3ccc4c(c3)OCO4)ccc2c1OCC	1.7
CCNC(=O)NCCc1c[nH]c2ccc(Cl)cc12	i
N#Cc1c(N)nc2c3c(sc(=N)c2c1N)NC(=O)CC3c1ccccc1 (stereo not drawn)	0.7
CCc1ccc(C(=O)NCc2cccs2)s1	i
CCc1nnc(NC(=O)CSc2nnc(-c3ccoc3C)n2-c2ccc(C)cc2)s1	0.5
Cc1ccc(-n2c(N)c(C(=O)NCc3cccnc3)sc2=S)cc1	1.2
CCn1c(/C=C/c2ccc([N+](=O)[O-])o2)nc2ccccc2c1=O	i
CCOc1ccc(CCNC(=O)C2CCN(S(=O)(=O)N3CCOCC3)CC2)cc1OCC	1.3
COC(=O)N/N=C(\C)c1ccc(Br)cc1	3.5
Cn1c(SCc2nc3ccccc3s2)nnc1-c1cccs1	1.9
CC(C)(C)c1nc(SCC(=O)Nc2ccc(N3CCOCC3)cc2)c2ccccc2n1	0.4
CCC(C)NC(=O)CN1C(=O)CC(C)(C)S(=O)(=O)c2ccccc21 (stereo not drawn)	1.0
The list goes on:
SMILES	H5N1 CPE
Cc1cc(C)cc(NC(=O)c2cccc(NC(=O)C3C4CC5OC(=O)C3C5C4)c2)c1 (stereo not drawn)	0.6
COc1ccccc1-n1c(SCC(=O)Nc2ccccc2F)nc2[nH]ncc2c1=O	0.2
Cc1ccc(C(=O)N/C(=C/c2ccc(-c3cc(C(F)(F)F)ccc3Cl)o2)C(=O)NCc2cccnc2)cc1	0.7
COc1ccc(O)c(/C=N/Nc2nc(Nc3ccccc3)nc(-n3nc(C)cc3C)n2)c1	3.1
COC(=O)c1ccccc1NC(=O)CNC(=O)c1ccco1	1.4
CC1CCc2nn(CC(=O)NCc3ccco3)cc2C1 (stereo not drawn)	0.3
CN(C)C(=O)c1noc2cc([N+](=O)[O-])ccc12	i
Cc1cccc(NC(=O)c2ccc(S(=O)(=O)N(C)C)cc2)c1	1.3
Cc1onc(-c2ccccc2Cl)c1C(=O)Nc1cccc(-c2cn3cccnc3n2)c1	0.1
COc1ccc(N(C(=O)c2ccccc2OC(C)=O)C(C)C2CC2)cc1 (stereo not drawn)	i
COC(=O)c1ccc(NC(=O)CCS(=O)(=O)c2ccc(Br)s2)cc1	0.6
COc1ccc(-n2ccc(=O)c3c2CCCC3=O)cc1	1.4
COC(=O)CSc1nc2ccc(NC(C)=O)cc2s1	i
CCC(=O)Nc1ccc(N2CCN(C(=O)c3ccccc3C)CC2)cc1	0.3
COC(=O)c1ccc(CSc2nnc(SCc3ccc(C(=O)OC)o3)s2)o1	i
CC(=O)Nc1nonc1NC(=O)CSc1ncn[nH]1	0.2
Cc1ccc(S(=O)(=O)N2CCC(C(=O)NCCc3ccccc3)CC2)cc1	1.5
CCCC(=O)Nc1ccc(NC(=O)c2ccccc2Cl)nc1	i
COc1ccccc1C(=O)n1nc(-c2ccc(Cl)cc2)nc1N	5.8
COCCNC(=O)c1cc2c(-c3ccccc3F)nn(C)c2s1	4.6
COc1ccc(C2/C(=C(/O)c3ccccc3)C(=O)C(=O)N2c2ccccn2)c(OC)c1 (stereo not drawn)	0.5
Cc1ccc(C2CC(=O)N3CN(Cc4ccco4)CSC3=C2C#N)cc1 (stereo not drawn)	i
Cc1nc2ccccc2c2oc(C(=O)NCc3ccc4c(c3)OCO4)cc12	0.2
Cc1cc(Cl)ccc1OCCCC(N)=O	1.1
O=C(NCc1ccccn1)C1CCN(S(=O)(=O)c2cccs2)CC1	i
CCC(C)NCCCCOc1ccc(C)cc1[N+](=O)[O-] (stereo not drawn)	i
Cc1ccc(S(=O)(=O)NCc2cn3ccsc3n2)c(C)c1	6.8
N#CC1(c2ccccc2)CCCN1C(=O)c1ccccc1Cl (stereo not drawn)	1.5
COc1cccc(C2C(C#N)=C(N)OC(C(C)(C)C)=C2C#N)c1 (stereo not drawn)	i
CC(C)C(NC(=O)c1ccc2c(c1)OCO2)C(=O)N/N=C\c1ccco1 (stereo not drawn)	0.4
CCN(CC)S(=O)(=O)c1cccc(-c2nnc(SCC(=O)NC3CCCCCCC3)n2N)c1	3.6
O=C(c1ccc(Cl)cc1)C(Cn1cncn1)C(Sc1ccccc1)c1ccccc1 (stereo not drawn)	3.9
CCCC(C)c1nnc(NC(=O)C2CCCO2)s1 (stereo not drawn)	0.3
Cc1cc(C(=O)NNC(=S)NCC2CCCO2)cs1 (stereo not drawn)	i
Cc1ccc(S(=O)(=O)c2c(N)n(C)c3nc4ccccc4nc23)cc1	1.6
Cc1c(NC(=O)CSc2ccccc2C(=O)Nc2cccnc2)c(=O)n(-c2ccccc2)n1C	i
CCC(=O)Nc1cc(-c2nn(C)c(=O)c3ccccc23)ccc1N1CCCCC1	2.5
COCC(=O)NCCSc1c(C)[nH]c2ccccc12	1.7
COc1ccc(CNC2CCCC2)c(OC)c1OC	0.4
CN1CCN(C(c2cccc(C(F)(F)F)c2)c2nnnn2Cc2ccccc2)CC1 (stereo not drawn)	0.4
CCCCCCOC(=O)c1ccccc1N	i
CCOC(=O)C1=C(C)NC(C)=C(C(=O)OCC)C1c1cc2ccc(C)cc2[nH]c1=O	i
COc1cc(-c2nc(-c3ccccc3)c(-c3cccs3)[nH]2)cc(OC)c1O	i
Cc1cccc(NC(=O)C(NS(=O)(=O)c2ccc3c(c2)CCC(=O)N3)c2ccccc2)n1 (stereo not drawn)	0.9
Cc1cc(-c2[nH]nc3c2C(c2cccc(O)c2)C(C#N)=C(N)O3)c(C)s1 (stereo not drawn)	i
COc1ccc(S(=O)(=O)N2CCC(C(=O)N3CCOCC3)CC2)cc1	0.1
CN(C)c1ccc(NC(=O)CN2CCC(N3CCCCC3)CC2)cc1	i
CSc1ccccc1C(=O)N1CCOCC1	i
CC1SC2(CN3CCC2CC3)NC1=O (stereo not drawn)	0.6
CC(C)CC(=O)NCc1ccc(F)cc1	i
Next part.
SMILES	H5N1 CPE
CCCN(CCC)CCNS(=O)(=O)c1ccc2c(c1)CCN2C(=O)C1CCC1	i
CC(C)[C@H](NC(=O)Nc1ccccc1F)C(=O)O	i
CC(Sc1ccccc1)C(=O)Nc1ccc(S(=O)(=O)N2CCOCC2)cc1 (stereo not drawn)	i
CC1CCc2nc(NC(=O)C3CCCO3)sc2C1 (stereo not drawn)	i
Cc1ccc(SCC(=O)O/N=C(\N)c2cccc([N+](=O)[O-])c2)cc1	i
O=C(c1c[nH]c2ccc(S(=O)(=O)N3CCOCC3)cc2c1=O)N1CCN(c2ccccn2)CC1	i
CCCCCn1c(CN2CCN(Cc3ccccc3)CC2)nc2c1c(=O)n(C)c(=O)n2C	2.1
CCCn1c(C(C)NC(C)=O)nc2ccccc21 (stereo not drawn)	0.3
O=C(NCCc1csc(-c2ccccc2)n1)c1ccc(Br)o1	i
Cc1ccc(S(=O)(=O)NC(=O)CSc2nc3ccccc3s2)cc1	i
COCCn1nc2cc(C(=O)NCC34CC5CC(CC(C5)C3)C4)ccc2c1OC	0.8
COc1ccc(-c2nc(CC(=O)O)cs2)cc1	i
Cc1ccc(S(=O)(=O)CCc2nnc(NC(=O)COc3cccc(C)c3)s2)cc1	i
COC(=O)c1cc(OC)c(OC)cc1NC(=O)CSc1ccc(C)cc1	i
CC(=C1C(=O)c2ccccc2C1=O)N1CCc2ccccc2C1	1.5
CC(C)(C)NCC(O)COc1c(F)cc(Br)cc1F (stereo not drawn)	i
CSCC[C@H](NC(=O)OC(C)(C)C)c1nnc(SCc2ccccc2)o1	1.0
CN(Cc1ccccc1)c1nc2c(c(=O)[nH]c(=O)n2C)n1CCCSc1ncccn1	1.3
O=C(c1cccs1)c1coc2ccc(O)c(CN3CCOCC3)c12	0.3
N#Cc1ccccc1NC(=O)Nc1ccc(Cl)cc1	i
CCOC(=O)c1c(C)c(C(=O)N2CCC3(CC2)OCCO3)c(C)n1CC	i
C1CCC(NC2=NCCC2)CC1	i
CC1CCCN(C(=S)NCCc2ccccc2)C1 (stereo not drawn)	i
Cc1cc(NCc2ccccn2)nc2ccccc12	i
COc1ccc(C2C3=C(Nc4ncnn42)c2ccccc2CCC3)cc1 (stereo not drawn)	i
CC1CN(S(=O)(=O)c2ccc(C(=O)Nc3sc4c(c3C(N)=O)CCN(C)C4)cc2)CC(C)O1 (stereo not drawn)	i
CCN1CCCC1CN(Cc1cc2cc(OC)ccc2[nH]c1=O)C(=O)NCc1ccccc1 (stereo not drawn)	0.6
Cc1ccccc1-n1c(=O)c2c(n3cnnc13)-c1ccccc1CC21CCCCC1	0.8
Cc1cccc(N2CCN(C(=O)CCCn3c(=S)[nH]c4cc5c(cc4c3=O)OCO5)CC2)c1C	0.4
Cc1nn(C(C)(C)C)c(OC(=O)c2cccs2)c1Sc1ccccc1	0.2
CC1=NN(C(=O)Cc2ccc([N+](=O)[O-])cc2)C(O)(c2cccnc2)C1 (stereo not drawn)	1.2
CS(=O)(=O)c1nc(-c2ccccc2)cc(C(F)(F)F)n1	i
COc1ccc(C2CC(=O)N3C(=C2C#N)SCC3(O)c2ccccc2)cc1 (stereo not drawn)	i
CCOC(=O)c1ccc(CNC(=O)c2cc(C(C)(C)C)oc2C)o1	2.4
COCC(=O)Nc1nnc(COc2ccccc2)s1	i

Reformatted as comma-separated lines: part of the list above.
SMILES,H5N1 CPE
CSCC[C@H](NC(=O)OC(C)(C)C)c1nnc(SCc2ccccc2)o1,1.0
CN(Cc1ccccc1)c1nc2c(c(=O)[nH]c(=O)n2C)n1CCCSc1ncccn1,1.3
O=C(c1cccs1)c1coc2ccc(O)c(CN3CCOCC3)c12,0.3
N#Cc1ccccc1NC(=O)Nc1ccc(Cl)cc1,i
CCOC(=O)c1c(C)c(C(=O)N2CCC3(CC2)OCCO3)c(C)n1CC,i
C1CCC(NC2=NCCC2)CC1,i
CC1CCCN(C(=S)NCCc2ccccc2)C1 (stereo not drawn),i
Cc1cc(NCc2ccccn2)nc2ccccc12,i
COc1ccc(C2C3=C(Nc4ncnn42)c2ccccc2CCC3)cc1 (stereo not drawn),i
CC1CN(S(=O)(=O)c2ccc(C(=O)Nc3sc4c(c3C(N)=O)CCN(C)C4)cc2)CC(C)O1 (stereo not drawn),i
CCN1CCCC1CN(Cc1cc2cc(OC)ccc2[nH]c1=O)C(=O)NCc1ccccc1 (stereo not drawn),0.6
Cc1ccccc1-n1c(=O)c2c(n3cnnc13)-c1ccccc1CC21CCCCC1,0.8
Cc1cccc(N2CCN(C(=O)CCCn3c(=S)[nH]c4cc5c(cc4c3=O)OCO5)CC2)c1C,0.4
Cc1nn(C(C)(C)C)c(OC(=O)c2cccs2)c1Sc1ccccc1,0.2
CC1=NN(C(=O)Cc2ccc([N+](=O)[O-])cc2)C(O)(c2cccnc2)C1 (stereo not drawn),1.2
CS(=O)(=O)c1nc(-c2ccccc2)cc(C(F)(F)F)n1,i
COc1ccc(C2CC(=O)N3C(=C2C#N)SCC3(O)c2ccccc2)cc1 (stereo not drawn),i
CCOC(=O)c1ccc(CNC(=O)c2cc(C(C)(C)C)oc2C)o1,2.4
COCC(=O)Nc1nnc(COc2ccccc2)s1,i
